Choline anaer gr: inhibitors of anaerobic choline-dependent gram-negative bacterial growth. Gram-negative bacterium anaerobic choline minimal medium, absorbance growth; hits give low values; many inactives read as strong as hits in the columns shown. hit rate 0.2% among 55,000. AID 1963822. calls only;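 active means growth z-score on choline under -2 at 7 or 20 h with little or no fall on glycerol, limits in tiers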;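 further: stock transfer was 300 nL into about 50 µL; the organism is E. coli; final concentration not given here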
Choline anaer gr early: further read-out of Choline anaer gr, marked with its call; z-score; measured here: choline growth z-score, timepoint 1;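 score of optical density at 7 h as mean of two plates; lower means less growth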
* hit, by the source's call; i = inactive; & = joins results of further samples. A portion of the library (hit frequency here may not be typical).

The line under a structure holds: Choline anaer gr, Choline anaer gr early
> O=C(NCCc1c[nH]c2ccccc12)c1ccc(N2C(=O)CCS2(=O)=O)cc1
→ i, -0.24
> CCCCNC(=O)CCc1c(C)nc2nc(NCc3ccc(C)cc3)[nH]n2c1=O
→ i, 0.2
> O=c1c(-c2ccccc2)c(N2CCc3ccccc3C2)c1=O
→ i, 0.34
> Cc1ccccc1-c1nc(CN2CCN(S(=O)(=O)c3ccc4c(c3)oc(=O)n4C)CC2)c(C)o1
→ i, -1.2
> Cc1nn(-c2ccc3nnc(C)n3n2)c2c1C(c1ccccc1F)CC(=O)N2 (configuration not stated)
→ i, 0.05
> Cn1cc(C(=O)NC2CCCC2)c2[nH]c(=O)n(-c3ccc(F)cc3)c(=O)c21
→ i, -0.91
> O=C(O)c1ccccc1O
→ i, -0.08
> COc1ccc2[nH]cc(CCNC(=O)c3cn(-c4ccc(F)cc4)nn3)c2c1
→ i, -0.22
> Cc1sc(-c2noc(C3CCC3)n2)cc1NC(=O)c1ccsc1
→ i, -0.98
> C=CCn1nnc(NCc2ccc(-c3ccc(Br)cc3)o2)n1
→ i, -0.73
> CCOC(=O)c1c(S(=O)(=O)N2CCCC(C(=O)Nc3ccc(C)cn3)C2)c(C)n(CC)c1C (configuration not stated)
→ i, -0.49
> CCn1c(=O)c(N2CCCC(C(=O)NCCc3c[nH]c4ccccc34)C2)nc2ccccc21 (configuration not stated)
→ i, 0.03
> COc1ccc(NC(=O)c2ccc3nn(CC(=O)Nc4ccccc4)c(=O)n3c2)cc1
→ i, -1.2
> Cc1cc(C)n(CCc2nc3c4ccccc4n(CC(=O)c4ccc(Br)cc4)c(=O)n3n2)n1
→ i, -0.09
> c1csc(CN2CCN(c3ncnc4c3CCC4)CC2)c1
→ i, -1.4
> COc1ccc(N(CC(=O)NCCc2ccc(S(N)(=O)=O)cc2)S(=O)(=O)c2c(C)noc2C)cc1
→ i, 1.8
> NS(=O)(=O)c1cc2c(cc1Cl)NC(C1CC3C=CC1C3)NS2(=O)=O (configuration not stated)
→ i, 0.08&-0.91
> CCCN1CCN(S(=O)(=O)c2[nH]ncc2C(=O)OCC)CC1
→ i, -1.3
> Cc1cccc(NC(=O)N2Cc3c(sc4c3CCN(C)C4)-n3cccc3C2C)c1C (configuration not stated)
→ i, -0.62
> Cc1cc(C)cc(NC(=O)Nc2ccccc2OCc2cc(=O)n3cccc(C)c3n2)c1
→ i, -0.62
> CCN(c1ccccc1)S(=O)(=O)c1ccc(N2CCCCS2(=O)=O)cc1
→ i, 0.21
> COc1cc(OC)cc(C(=O)N2CCc3c(c(C(=O)NCc4ccc(Cl)cc4)nn3C)C2)c1
→ i, -0.4
> Cc1ccc(NC(=O)CSCc2nc3cccnc3n2C2CCCCC2)cc1
→ i, 0.57
> Cc1cc(C)cc(-n2ncc3c(N4CCOCC4)ncnc32)c1
→ i, 2.8
> COc1cccc(C2CC(=O)Nc3c2c(C)nn3-c2ccc3nnc(C)n3n2)c1OCc1ccccc1 (configuration not stated)
→ i, -1.5
> Cc1c(Cl)cccc1N1C(=O)c2cc3occc3n2CC1(C)C(=O)NC1CCC(C)CC1 (configuration not stated)
→ i, -1.3
> COc1cc2c(=O)n(Cc3ccc(C(=O)NC(C)C)cc3)c(=O)n(CC(=O)N3CCCCC3C)c2cc1OC (configuration not stated)
→ i, 0.1
> Cc1nn(-c2nc3ccccc3n2C)c2c1C(c1ccc(F)c(Br)c1)CC(=O)N2 (configuration not stated)
→ i, 0.75
> CC(C)c1nc2cc3c(cc2[nH]1)OCCO3
→ i, -1.4
> COc1ccc(N2C(=O)CCS2(=O)=O)cc1S(=O)(=O)Nc1ccccc1Oc1ccccc1
→ i, 0.33
> CCCCC[C@H](O)/C=C/[C@H]1C2CC(CO2)[C@@H]1C/C=C/CCCC(=O)O (some centres not stated)
→ i, 0.2
> CCOC(=O)c1ccc(Nc2cc(-c3ccccc3)nc(C)n2)cc1
→ i, 1.9
> COc1ccccc1Oc1c(NS(=O)(=O)c2ccc(C(C)(C)C)cc2)nc(-c2ncccn2)nc1OCCO
→ i, 0.54&0.45&0.8&-0.26
> O=C(NC1CCCCC1)N1CCN(Cc2nc3cccnc3n2-c2cccc(F)c2)CC1
→ i, 0.68
> O=C(Cn1ncn2nc(-c3ccccc3)cc2c1=O)NCC1CCCO1 (configuration not stated)
→ i, -0.15
> Cc1ccc(-c2nc3cccnc3n2CCNC(=O)c2ccc3c(c2)OCO3)cc1
→ i, -0.04
> O=C(O)c1cc(N2CCN(c3ccccc3)CC2)nc2ccc(NS(=O)(=O)c3cccc(F)c3)cc12
→ i, 0.17
> CCOCCCNC(=O)C1CCCN(c2ncc(-c3ccc(F)cc3)cn2)C1 (configuration not stated)
→ i, -0.42
> c1cc(-c2nc(-c3ccnc(N4CCCC4)c3)no2)ccn1
→ i, -1.2
> CCCCNC(=O)c1ccc(-c2cc(N3CCCC3)ncn2)cc1
→ i, 0.49

Some of the entries so far, as labelled records:
COc1ccccc1Oc1c(NS(=O)(=O)c2ccc(C(C)(C)C)cc2)nc(-c2ncccn2)nc1OCCO
- Choline anaer gr = i
- Choline anaer gr early = 0.54&0.45&0.8&-0.26

O=C(NC1CCCCC1)N1CCN(Cc2nc3cccnc3n2-c2cccc(F)c2)CC1
- Choline anaer gr = i
- Choline anaer gr early = 0.68

O=C(Cn1ncn2nc(-c3ccccc3)cc2c1=O)NCC1CCCO1 (configuration not stated)
- Choline anaer gr = i
- Choline anaer gr early = -0.15

Cc1ccc(-c2nc3cccnc3n2CCNC(=O)c2ccc3c(c2)OCO3)cc1
- Choline anaer gr = i
- Choline anaer gr early = -0.04

More records.
Molecule	Choline anaer gr	Choline anaer gr early
CCCNCC(O)COc1ccccc1C(=O)CCc1ccccc1 (configuration not stated)	i	0.32&-0.46&0.38&-0.69
O=C(C1CCCN(c2nc3cccnc3s2)C1)N1CCN(c2ccccn2)CC1 (configuration not stated)	i	-0.58
CCCCCc1c(C)nn(-c2nc(CC(=O)Nc3nc(C)cs3)cs2)c1C	i	2.5
CN1CCN(C(=O)CN2CCN(Cc3ccccc3)C(=O)C2=O)CC1	i	-1
O=C(CCCn1c(=O)c2cccn2c2ccc(Br)cc21)NCCc1cnc[nH]1	i	0.49
COc1cccc(NC(=O)c2cccc(-n3cnc4c(sc5nc(C)cc(C)c54)c3=O)c2)c1	i	-0.85
c1cc(-c2nnc(C3CCCC3)o2)ccn1	i	-0.09
CCc1ccc(-c2nc3ccccn3c2CNCc2cccc(C)c2)cc1	i	-0.25
CCCC(=O)N(c1ccc2oc(C)c(C(=O)OCC)c2c1)S(=O)(=O)c1ccc(Br)cc1	i	-0.11
Cn1c(=O)c(-c2noc(C(=O)N3CCOCC3)n2)nn(-c2ccc(F)cc2)c1=O	i	0.2
Cn1c(SCC(=O)c2ccc3c(c2)OCCCO3)nnc1-c1ccc2c(c1)OCCCO2	i	0.43
CN1CCN(CCCN2c3ccccc3Sc3ccc(Cl)cc32)CC1	i	-1.4&0.57&-2.5
CCCNC(=O)C1CCCN(c2nc3ncn(CC(=O)N4CCc5ccccc5C4)c(=O)c3s2)C1 (configuration not stated)	i	0.33
Cc1ccc(S(=O)(=O)Nc2ccc3nc(N4CCN(C)CC4)cc(C(=O)O)c3c2)c(C)c1	i	-0.81
COC(=O)c1nc(C)n(-c2ccc(Cl)cc2)n1	i	-0.63
CC(=O)Nc1cnc(N2CCN(c3cccc(C)c3)C(C)C2)c(C(=O)O)c1 (configuration not stated)	i	-0.44
CCCCC[C@H](O)/C=C/[C@H]1CC[C@H](O)[C@@H]1CCCCCCC(=O)O	i	0.23
O=C(NC1CCCCC1)c1cccc(Nc2ccc(-c3ccccc3)nn2)c1	i	-0.59
Cc1nn(-c2ccccc2)c(C)c1CCc1nn2c(Cc3ccccc3)nnc2s1	i	0.08
O=C(CSc1nnc2n1CCN2c1ccccc1)c1ccc(Cl)cc1	i	0.51
O=C(NCCc1nc2cccnc2n1C1CCCCC1)NCc1ccc(F)cc1	i	0.37
CCOCCOC(=O)c1ccc2c(c1)N(CC(=O)Nc1ccccc1C)C(=O)c1ccccc1S2	i	-1.4
CC(C)CNC(=O)CN1c2ccccc2NC2=C(C(=O)CC(C)(C)C2)C1c1ccc(F)cc1 (configuration not stated)	i	-1.4
c1ccc(-c2nc3ccccc3c3nnc(SCc4ccc5nonc5c4)n23)cc1	i	0.44
O=S(=O)(NCCc1n[nH]c(Cc2ccccc2)n1)c1cc(F)cc(F)c1	i	0.48
CNCC[C@@H](Oc1ccccc1C)c1ccccc1	i	-0.46&-0.3
COc1cccc(N2C(=O)c3cc4ccccc4n3CC2(C)C(=O)NC2CCCCC2)c1 (configuration not stated)	i	0.94
C=CCNc1cc(CCC)nc2nc(-c3cccnc3)nn12	i	0.11
CN1CCc2c(sc3c2CN(C(=O)NCCc2ccccc2)C(c2ccc(F)cc2)c2cccn2-3)C1 (configuration not stated)	i	-0.16
Cc1ccccc1C(=O)Nc1nc2ccc(S(N)(=O)=O)cc2s1	i	3.9
Cc1ccc(-c2cc(N3CCC(C(=O)NCc4ccc5c(c4)OCO5)CC3)ncn2)cc1	i	-1
CCCCCCCC/C=C\CCCCCCCC(N)=O	i	0.74&-0.45
O=C(Nc1nnc(SCc2nnc(-c3ccccc3)o2)s1)c1ccccc1Br	i	0.74
O=C(c1ccc(NC2CCCCC2)nn1)N1CCc2ccccc21	i	-1.2
Clc1ccc(-c2csc3ncnc(N4CCCC4)c23)cc1	i	-0.57
CC1=C(C(N)=O)C(c2ccc(Br)cc2)n2ncnc2N1 (configuration not stated)	i	-0.42
c1cc2c(cc1-c1noc(-c3ccc4c(c3)OCO4)n1)ncn2CCN1CCCC1	i	-2.1
CCOc1ccc(NC(=O)Nc2cc3[nH]c(=O)[nH]c3cc2C)cc1	i	-0.03
CCCCCCCCCCCCCCCCOP(=O)([O-])OCC[N+](C)(C)C	i	1.2
N[C@@H](C(=O)O)c1ccc(C(=O)O)c(C(=O)O)c1	i	-0.82
CC(=O)OC1CCN(C(=O)NC(C)C)CC1	i	1.2
COc1ccc(N2CCCn3c2nc2c3c(=O)n(CC(=O)O)c(=O)n2C)cc1	i	0.31
Cc1nc(-c2cc(NC(=O)CNC(=O)c3ccccc3)c(C)s2)no1	i	0.27
Cc1ccc(S(=O)(=O)N2CCC3(CC2)NCCN=C3NCc2ccccc2)cc1	i	-0.39
Cn1cccc1-c1cc2n(n1)CCC(=O)N2CC(=O)NCCc1ccc(Cl)cc1	i	-0.23
O=C(NCCOc1ccc(-c2ccc(F)cc2)nn1)C1CC1	i	-0.99
O=C(c1nc(-c2ccccc2)n(-c2ccccc2)n1)N1CCCC1	i	0.52
CCOC(=O)COc1ccc(C)cc1C(=O)c1ccn2nc(-c3ccc(F)cc3)cc2n1	i	0.73
CCn1c(C)c(-c2nc(C3CC3)no2)c(S(=O)(=O)N2CCCC(C)C2)c1C (configuration not stated)	i	0.03
CC1(C(=O)NC2CCCCC2)Cn2c(cc3occc32)C(=O)N1Cc1cccnc1 (configuration not stated)	i	-0.35
O=S(=O)(c1cccn2c(SCc3ccc(F)cc3)nnc12)N1CCCC1	i	-0.38
Cc1nc(CCNC(=O)[C@H]2CCCN2S(=O)(=O)c2cccs2)cs1	i	-0.52
NC(=S)c1ccc[n+]([C@@H]2O[C@@H](COP(=O)([O-])OP(=O)(O)OC[C@H]3O[C@@H](n4cnc5c(N)ncnc54)C(OP(=O)(O)O)[C@H]3O)C(O)C2O)c1 (some centres not stated)	i	0.79
O=C(Nc1cccc2nsnc12)c1[nH]nc2c1CCc1ccccc1-2	i	-0.06
COc1ccc(NC(=O)c2c(C)oc3ccc(OC)cc23)c(OC)c1	i	0.03
Cc1noc2c1C(c1cccc(O)c1)C1=C(CC(c3ccccc3O)CC1=O)N2 (configuration not stated)	i	-0.93
NC(N)=NC(N)=Nc1cccc(Cl)c1	i	0.48&0.5
O=C(NCc1cccnc1)c1ccc(NC(=O)c2nnc(COc3ccc(Cl)cc3)s2)cc1	i	-0.12
O=C(NC1CC1)c1csc(N2CCCCC2)n1	i	0.18
Cn1c(=O)n(C)c2cc(Sc3ccccc3)c(NS(=O)(=O)c3cccc4nsnc34)cc21	i	-0.07

More results:
Molecule	Choline anaer gr	Choline anaer gr early
CCOc1ccc(-n2c(=O)c3sc4ncccc4c3n(CC(=O)NC3CCCC3)c2=O)cc1	i	0.15
Cc1cc(C)n(Cc2c(C(=O)NCCc3c[nH]c4ccccc34)noc2C)n1	i	0.38
CCC1CN(S(=O)(=O)c2ccc3c(c2)NCCS3)c2cc(Cl)ccc2O1 (configuration not stated)	i	0.58
CCc1ccc2c(c1)-c1ccccc1S(=O)(=O)N2CC(=O)NC	i	0.03
CCc1cc(CN2CCNC(=O)C2)on1	i	0.85
O=C(COc1ccc(F)cc1)NCC(c1ccccc1)c1c[nH]c2ccccc12 (configuration not stated)	i	1.3
CC(C)N1CCn2c(nc3cc(NC(=O)Nc4ccccc4)ccc32)C1	i	0.46
C=CCn1c(SCC(N)=O)nnc1-c1cc2ccccc2o1	i	-1.1
CCNc1nc(N2CCC(N3CCCCC3)CC2)nc2c1cnn2C	i	0.21
O=S1(=O)C[C@H](NC2CCCCCC2)[C@@H](S(=O)(=O)c2ccc(Cl)cc2)C1	i	0.01
CCOc1ccc(CN2CCCC2c2cc(C(C)C)on2)cc1OC (configuration not stated)	i	0.53
Cc1cc(C)n(CC(=O)NCc2ccc3c(c2)OCO3)c(=O)c1S(=O)(=O)c1ccc(Cl)cc1	i	0.4
CC(C)n1c(/C=C/[C@@H](O)C[C@@H](O)CC(=O)O)c(-c2ccc(F)cc2)c2ccccc21	i	-1.4

Four neighbouring records from above:
Molecule	Choline anaer gr	Choline anaer gr early
COc1cccc(NC(=O)c2cccc(-n3cnc4c(sc5nc(C)cc(C)c54)c3=O)c2)c1	i	-0.85
c1cc(-c2nnc(C3CCCC3)o2)ccn1	i	-0.09
CCc1ccc(-c2nc3ccccn3c2CNCc2cccc(C)c2)cc1	i	-0.25
CCCC(=O)N(c1ccc2oc(C)c(C(=O)OCC)c2c1)S(=O)(=O)c1ccc(Br)cc1	i	-0.11

Compound activity (PubChem BioAssay)
